FGF22 binding = FGF22 (human) thermal shift binding; recombinant FGF22 thermal shift, SYPRO orange fluorescence; percent of sucrose octasulfate shift, DMSO zero; calls only at 9.99 µM; hit rate 1.5% among 340,000;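 active = melting point raised past a set limit in the mean and every replicate; three in four hits are not shown here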
Target sequence (Q9HCT0 whole entry, looked up): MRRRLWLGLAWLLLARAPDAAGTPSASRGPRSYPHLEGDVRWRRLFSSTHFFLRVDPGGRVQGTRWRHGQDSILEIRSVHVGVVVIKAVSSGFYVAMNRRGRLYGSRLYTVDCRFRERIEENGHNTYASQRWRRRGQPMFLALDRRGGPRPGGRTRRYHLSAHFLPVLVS
MLL AF4-AF9 inh = blocks AF4 peptide binding to human AF9; P42568; AlphaScreen, biotin-AF4 peptide binding to FLAG-AF9; inhibition, % at 10 µM; hit rate 0.47% among 350,000;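 active = every replicate reaching a set inhibition limit, whatever the replicate mean, cut at about 25% in these data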;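 note: 0% = plate neutral control median and 100% = total signal loss; the record names both 10 and 1 µM as test concentration; the first replicate is given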
Target sequence (P42568 whole entry, looked up): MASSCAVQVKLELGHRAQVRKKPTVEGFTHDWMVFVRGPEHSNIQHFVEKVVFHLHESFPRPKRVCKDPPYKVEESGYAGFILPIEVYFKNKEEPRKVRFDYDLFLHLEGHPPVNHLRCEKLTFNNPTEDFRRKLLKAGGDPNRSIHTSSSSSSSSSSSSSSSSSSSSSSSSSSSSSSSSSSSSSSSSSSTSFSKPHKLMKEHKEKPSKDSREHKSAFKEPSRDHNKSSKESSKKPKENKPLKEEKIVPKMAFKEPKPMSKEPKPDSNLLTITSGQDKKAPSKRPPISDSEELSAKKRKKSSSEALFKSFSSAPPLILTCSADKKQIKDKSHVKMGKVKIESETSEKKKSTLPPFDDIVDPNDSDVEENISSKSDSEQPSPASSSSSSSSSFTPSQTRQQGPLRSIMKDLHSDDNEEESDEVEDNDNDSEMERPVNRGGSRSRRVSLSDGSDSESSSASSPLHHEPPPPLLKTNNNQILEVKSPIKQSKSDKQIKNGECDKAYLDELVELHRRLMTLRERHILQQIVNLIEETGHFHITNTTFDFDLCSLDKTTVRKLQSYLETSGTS
rRNA inh HTS = selective bacterial rRNA inhibition in E. coli. AID 720706. GFP signal change (wild-type ribosome), % (test concentration not listed). E. coli WT GFP vs humanized-ribosome RFP mutants, fluorescence, 24 h; active compounds read low; DMSO median 0, no signal -100. hit rate 1.6% among 350,000;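 active = significant combined selectivity score with lowered wild-type GFP, culture density cut under 30%, mutant RFP and density less affected; inactive = any of these conditions unmet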; note: one replicate is shown; some compounds called inactive have numbers as strong as hits
rRNA inh HTS OD600 = further read-out of rRNA inh HTS, marked with its call; OD600 change, %; measured here: OD600 growth;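 optical density of the mix in the first replicate; 0 = DMSO median and -100 = no signal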
rRNA inh HTS RFP = recorded beside rRNA inh HTS, whose call it bears; RFP signal change, %; measured here: RFP humanized mutant strains;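 first replicate; 0 = DMSO median and -100 = no signal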
* marks the source's active call; other numbers are inactive results; i = inactive; + = active, no number; & = joins results of further samples. Only part of the results is shown, so the mix of outcomes need not match the whole.

Order of results: FGF22 binding	MLL AF4-AF9 inh	rRNA inh HTS	rRNA inh HTS OD600	rRNA inh HTS RFP
CNC(=O)C[C@H]1CC[C@H]2[C@H](COc3ccc(NS(=O)(=O)c4ccccc4C)cc3C(=O)N2C)O1
  i	-2.0	1	5	-1.1
C[C@H]1CN([C@@H](C)CO)C(=O)c2cc(NC(=O)Cc3ccccc3)ccc2O[C@H]1CN(C)S(=O)(=O)c1ccc(F)cc1
  i	-1.3	-1	8	-0.7
O=C1c2ccccc2CCc2ccccc21
  i	-1.0	-5	0	3.5
COc1ccc(CN(C)C[C@H]2Oc3ccc(NC(=O)Cn4cnnn4)cc3C(=O)N([C@@H](C)CO)C[C@@H]2C)cc1
  i	-2.6	6	15	3.3
COc1ccccc1NC(=O)N1CC(=O)N2[C@@H](CO)[C@H](c3ccc(C#CC(C)C)cc3)[C@@H]2C1
  i	-0.6	1	9	-1.5
N#C[C@@H]1[C@@H](c2ccc(/C=C/c3ccccc3)cc2)[C@@H](CO)N1C(=O)Cc1ccccn1
  i	-5.2	-7	-10	-8.0
CS(=O)(=O)N1CC(=O)N2[C@H](CO)[C@@H](c3ccc(C#Cc4ccc(F)cc4)cc3)[C@H]2C1
  i	2.3	1	0	-3.6
CC(C)NC(=O)Nc1ccc2c(c1)C(=O)N([C@H](C)CO)C[C@H](C)[C@H](CN(C)S(=O)(=O)c1cccs1)OCCCC[C@@H](C)O2
  i	-1.5	3	-4	-1.7
COc1cccc(NC(=O)N[C@H]2CC[C@H](CC(=O)Nc3ccccc3)O[C@@H]2CO)c1
  i	1.8	1	5	-0.2
O=C(CCNS(=O)(=O)c1ccc(Cl)cc1)NCCc1ccccc1
  i	-2.1	-8	-11	-2.7
C[C@H](CO)N1C[C@H](C)[C@@H](CN(C)Cc2ccncc2)Oc2ncc(C#CC3(O)CCCC3)cc2C1=O
  i	0.1	3	4	-3.7
Cc1ccccc1-c1cc2nc(NCCc3ccncc3)n(C)c(=O)c2s1
  i	2.7	-58	-80	-19
CCOc1ccc2nc(S(=O)(=O)NC(=O)C3(C)CCN3C(=O)CCc3cccs3)sc2c1 (configuration not stated)
  i	-1.9	-9	-2	1.6
O=C(C[C@H]1CC[C@@H]2[C@H](COC[C@@H](O)CN2Cc2cccc(Cl)c2)O1)NCc1cccc(F)c1
  i	-1.5	-9	-15	5.3
c1ccc(Oc2ccccn2)cc1
  i	-1.2	1	4	-0.7

New compounds follow.
Order of results: FGF22 binding	MLL AF4-AF9 inh	rRNA inh HTS	rRNA inh HTS OD600	rRNA inh HTS RFP
CN1C(=O)c2cc(NC(=O)Nc3ccccc3F)ccc2OC[C@@H]2O[C@H](CC(=O)NCc3ccc(-c4ccccc4)cc3)CC[C@@H]21
  i	-1.8	2	-3	-1.6
Cc1noc(C)c1NC(=O)Nc1ccc2c(c1)C(=O)N([C@H](C)CO)C[C@@H](C)[C@@H](CN(C)C(=O)NC(C)C)OCCCC[C@@H](C)O2
  i	-1.7	-2	5	-2.1
COc1ccc2c3c(n(C)c2c1)[C@H](CO)N(C(=O)Nc1ccc(F)cc1)CC31CCN(S(=O)(=O)c2cccc(F)c2)CC1
  i	-1.2	3	1	-1.3
OC(c1ccccc1)(c1nc(-c2ccc3ccccc3c2)cs1)C(F)(F)F (configuration not stated)
  i	-1.3	-3	-11	3.6
COCC#Cc1cnc2c(c1)C(=O)N([C@H](C)CO)C[C@@H](C)[C@H](CN(C)Cc1ccc3c(c1)OCO3)O2
  i	-0.7	5	3	-1.3
CO[C@@H]1CN(C)C(=O)c2cc(NC(=O)Nc3cc(F)ccc3F)ccc2OC[C@H](C)NC[C@@H]1C
  i	-0.3&-0.4	-2&-2&-1	-1&0&-4	0.3&-1.9&0.2
CN1OC[C@@H]2CN(C(=O)C(C)(C)C)[C@H](c3cccc(N4CCOCC4)c3)C[C@@H]21
  i	-3.3	13	17	-2.0
CCOC(=O)[C@]12CCCC=C1N(Cc1ccccc1)C(=O)[C@H](CC(=O)NCCCCc1ccccc1)C2
  i	1.1	-4	-4	5.3
C[C@H]1CCCCO[C@H](CN(C)C(=O)c2ccccc2)[C@@H](C)CN([C@@H](C)CO)C(=O)c2cc(NC(=O)c3ccccc3)ccc2O1
  i	1.3	-4	-2	-0.5
COc1ccc(S(=O)(=O)Nc2ccc3c(c2)C(=O)N([C@@H](C)CO)C[C@@H](C)[C@H](CN(C)S(=O)(=O)c2ccc(OC)cc2)O3)cc1
  i	1.2	-4	-4	-0.2
COc1ccc(NC(=O)C[C@H]2C(=O)N(Cc3ccccc3)C[C@@H]2Cc2ccccc2)cc1
  i	4.0	-10	-32	-9.9
CN1C(=O)c2cc(NC(=O)C3CCCC3)ccc2OC[C@@H]2O[C@@H](CC(=O)NCCc3ccncc3)CC[C@@H]21
  i	1.9	3	5	-4.3
COc1cccc(C(=O)N2CCC[C@H]2C(=O)N2CCC[C@H]2C(=O)NCc2ccccn2)c1
  i	0.0	6	11	1.7
C[C@H](CO)N1C[C@H](C)[C@@H](CN(C)C(=O)Oc2ccccc2)OCc2ccccc2-c2ccccc2C1=O
  i	-2.0	-1	0	6.2
COCC(=O)N1CC[C@H]2[C@@H]1c1cc(-c3cccc(OC)c3)ccc1N(C)[C@H]2CO
  i	-0.1	4	20	-1.0

Complete entries, looked up by structure. Order of screens: FGF22 binding	MLL AF4-AF9 inh	rRNA inh HTS	rRNA inh HTS OD600	rRNA inh HTS RFP
Listed for CS(=O)(=O)N1CC(=O)N2[C@H](CO)[C@@H](c3ccc(C#Cc4ccc(F)cc4)cc3)[C@H]2C1 : i	2.3	1	0	-3.6
Listed for COc1ccccc1NC(=O)N1CC(=O)N2[C@@H](CO)[C@H](c3ccc(C#CC(C)C)cc3)[C@@H]2C1 : i	-0.6	1	9	-1.5

The listing continues:
Order of results: FGF22 binding	MLL AF4-AF9 inh	rRNA inh HTS	rRNA inh HTS OD600	rRNA inh HTS RFP
O=C(C[C@H]1C[C@@H]2c3cc(NS(=O)(=O)c4ccc(F)cc4)ccc3O[C@@H]2[C@@H](CO)O1)NCc1ccc(Cl)cc1
  i	2.8	-52	-77	-11
COc1ccc(S(=O)(=O)Nc2ccc3c(c2)[C@@H]2C[C@@H](CC(=O)N(C)C)O[C@H](CO)[C@@H]2O3)cc1
  i	-0.7	1	4	-2.5
C[C@@H]1CN([C@@H](C)CO)C(=O)c2cccc(NS(C)(=O)=O)c2O[C@@H]1CN(C)S(=O)(=O)c1cccs1
  i	0.1	6	15	-0.8
C[C@H](CO)N1C[C@H](C)[C@H](CN(C)C)Oc2ncc(-c3cccnc3)cc2C1=O
  i	-4.1	8	5	-1.2
C[C@@H]1CN([C@H](C)CO)C(=O)c2cc(NC(=O)Nc3cccc4ccccc34)ccc2O[C@@H](C)CCCCO[C@H]1CN(C)Cc1ccc(C(=O)O)cc1
  i	0.7	1	7	2.5
CC(C)NC(=O)N(C)C[C@@H]1Oc2c(NS(=O)(=O)c3ccccc3)cccc2C(=O)N([C@H](C)CO)C[C@H]1C
  i	0.5	0	0	-1.8
O=C(C=Cc1ccccc1O)c1ccccc1O
  i	2.6	-73	-81	-29
CCn1c(C(=O)N2CCC(C(=O)NCc3ccc4c(c3)OCO4)CC2)cc2sccc21
  i	-1.1	-5	-30	-3.5
C[C@@H]1CN([C@H](C)CO)C(=O)Cc2cc(NC(=O)CCCCCC(=O)Nc3ccccc3N)ccc2O[C@@H]1CN(C)C(=O)Nc1ccccc1
  i	-1.9	0	7	-2.5
COC(=O)C[C@H]1CC[C@@H]2[C@@H](COc3ccc(NC(=O)C4CCOCC4)cc3C(=O)N2C)O1
  i	-1.1	0	-1	-0.5
CCNC(=O)[C@@H]1[C@@H](CO)[C@@H]2Cn3c(ccc(-c4ccc(OC)cc4)c3=O)[C@@H]2N1Cc1ccccc1
  i	-9.6	-5	-7	3.5
CCOc1ccccc1NC(=O)CN(c1ccc(OC)c(OC)c1)S(=O)(=O)c1ccc(C)cc1
  i	2.2	6	10	2.5
CCN(CC(=O)Nc1ccc(Br)cc1)CC(=O)Nc1cc(C)on1
  i	0.2	5	4	0.6
CCOC(=O)C1=C(C)c2ccccc2OC1(C)C(=O)OCC (configuration not stated)
  i	2.5	-21	-14	-2.1
COc1ccc(C(N)c2csc(Nc3nncc4ccccc34)n2)cc1 (configuration not stated)
  i	14	-59	-78	-16

Shown as labelled records: entries from further up.
C[C@@H]1CN([C@H](C)CO)C(=O)c2cc(NC(=O)Nc3cccc4ccccc34)ccc2O[C@@H](C)CCCCO[C@H]1CN(C)Cc1ccc(C(=O)O)cc1
  FGF22 binding: i	MLL AF4-AF9 inh: 0.7	rRNA inh HTS: 1	rRNA inh HTS OD600: 7	rRNA inh HTS RFP: 2.5

CCn1c(C(=O)N2CCC(C(=O)NCc3ccc4c(c3)OCO4)CC2)cc2sccc21
  FGF22 binding: i	MLL AF4-AF9 inh: -1.1	rRNA inh HTS: -5	rRNA inh HTS OD600: -30	rRNA inh HTS RFP: -3.5

More compounds.
Order of results: FGF22 binding	MLL AF4-AF9 inh	rRNA inh HTS	rRNA inh HTS OD600	rRNA inh HTS RFP
O=[N+]([O-])c1ccc2c(c1)-c1ccccc1C2=NO
  i	2.9	-13	-22	-7.9
COCCNc1nc(NCC2CCCCC2)c2sc(-c3ccccc3)cc2n1
  i	5.6	-9	-10	18
O=C(C[C@H]1CC[C@@H](NC(=O)Nc2cc(F)ccc2F)[C@@H](CO)O1)NCc1ccc2c(c1)OCO2
  i	-16	-6	-4	-2.2
Cc1cccc(C)c1NC(=O)CN1CCN(c2ccc(F)cc2)CC1
  i	1.0	-11	-2	-3.5
CO[C@@H]1CN(C)C(=O)c2cc(NC(C)=O)ccc2OC[C@@H](C)N(Cc2ccc(F)cc2)C[C@@H]1C
  i	2.3	-2	-9	-4.1
CCC(NCc1cccnc1)c1ccc(OC)c(OC)c1 (configuration not stated)
  i	1.3	15	9	4.3
COc1ccc(CN(C)C[C@@H]2Oc3c(NS(=O)(=O)c4ccc(OC)cc4)cccc3C(=O)N([C@@H](C)CO)C[C@H]2C)cc1
  i	0.0	2	9	0.1
COc1ccccc1CNC(=O)C[C@@H]1C[C@H]2c3cc(NS(=O)(=O)c4ccc(F)cc4)ccc3O[C@H]2[C@@H](CO)O1
  i	2.6	-4	-4	2.5
CCNC(=O)[C@@H]1[C@@H](CO)[C@@H]2Cn3c(ccc(-c4ccccc4)c3=O)[C@H]1N2C(=O)C1CC1
  i	0.3	-1	9	-0.2
O=C(NCCO)c1c(-c2ccc3c(c2)OCO3)noc1-c1ccsc1
  i	-3.8	7	14	0.6
OC(c1ccccc1)c1nc(-c2cnc3ccccc3c2)cs1 (configuration not stated)
  i	-1.1	-10	-14	-2.5
O=c1cc(Cl)nc2ccccn12
  i	-4.1	11	24	0.3
Cc1noc(C)c1S(=O)(=O)Nc1ccc2c(c1)CC(=O)N([C@H](C)CO)C[C@@H](C)[C@@H](CN(C)C(=O)Nc1cccc3ccccc13)O2
  i	-1.4	-4	11	0.8
Cc1ccccc1-c1ccccc1[C@@H]1[C@@H](C#N)N(C(=O)c2ccccc2)[C@H]1CO
  +	-9.5	-7	-26	-2.6
CCCCCCCCN1C(=O)[C@H](CC(=O)N2CCC(c3ccccc3)CC2)C[C@@]2(C(=O)OC)CC(C)(C)CC=C12
  i	-1.3	10	5	-0.9

The list goes on.
Order of results: FGF22 binding	MLL AF4-AF9 inh	rRNA inh HTS	rRNA inh HTS OD600	rRNA inh HTS RFP
CC(=O)N(c1nc2ccccc2s1)N1C(=O)c2ccccc2C1=O
  i	11	-8	-12	-2.5
C[C@@H]1CN([C@@H](C)CO)S(=O)(=O)c2ccc(C#Cc3ccccc3)cc2O[C@@H]1CN(C)C(=O)c1ccccn1
  i	0.6	-2	-18	11
O=C1NC[C@H](Cc2ccc(O)cc2)N(C[C@@H]2CCCN2C[C@H](Cc2ccc(O)cc2)N2C[C@H](Cc3ccccc3)N(CC3CCCCCC3)C(=O)C2=O)C1=O
  i	0.9	-28	-23	4.6
COc1ccc(-c2csc(Nc3ccc(Oc4ccccc4)cc3)n2)cc1
  i	-3.2	-20	-3	47
C[C@@H]1CN([C@H](C)CO)C(=O)Cc2cc(NC(=O)NC3CCCCC3)ccc2O[C@@H]1CN(C)C(=O)Nc1cccc2ccccc12
  i	0.4	4	1	2.7
Cc1ccsc1C(=O)OCC(=O)NC1CCCCC1C (configuration not stated)
  i	-2.0	4	7	-1.8
C[C@H]1CN([C@@H](C)CO)C(=O)c2cc(C#CC3(O)CCCC3)cnc2O[C@H]1CN(C)C(=O)CN(C)C
  i	-2.1	4	9	3.3
Cc1noc(C)c1NC(=O)Nc1ccc2c(c1)CC(=O)N([C@H](C)CO)C[C@H](C)[C@H](CN(C)S(=O)(=O)c1ccc(Cl)cc1)O2
  i	-1.6	3	-4	2.1
COCC(=O)N(C)C[C@H]1Oc2cc(Br)ccc2S(=O)(=O)N([C@H](C)CO)C[C@H]1C
  i	-2.5&-1.8	4	1	-0.5

Screens as filed in PubChem.
